CHT allo act: allosteric activators of human choline transporter CHT; B-score at 10 µM; 0.49% of 310,000 active; Q9GZV3; CHT-expressing cells, membrane potential dye, choline EC20; stronger effect = higher value; LV-AA mutant CHT in HEK293 cells;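 active = initial fluorescence not abnormally high and integrated response B-score, plate-corrected, over 3 SD above library mean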
Target sequence (Q9GZV3 whole entry, looked up): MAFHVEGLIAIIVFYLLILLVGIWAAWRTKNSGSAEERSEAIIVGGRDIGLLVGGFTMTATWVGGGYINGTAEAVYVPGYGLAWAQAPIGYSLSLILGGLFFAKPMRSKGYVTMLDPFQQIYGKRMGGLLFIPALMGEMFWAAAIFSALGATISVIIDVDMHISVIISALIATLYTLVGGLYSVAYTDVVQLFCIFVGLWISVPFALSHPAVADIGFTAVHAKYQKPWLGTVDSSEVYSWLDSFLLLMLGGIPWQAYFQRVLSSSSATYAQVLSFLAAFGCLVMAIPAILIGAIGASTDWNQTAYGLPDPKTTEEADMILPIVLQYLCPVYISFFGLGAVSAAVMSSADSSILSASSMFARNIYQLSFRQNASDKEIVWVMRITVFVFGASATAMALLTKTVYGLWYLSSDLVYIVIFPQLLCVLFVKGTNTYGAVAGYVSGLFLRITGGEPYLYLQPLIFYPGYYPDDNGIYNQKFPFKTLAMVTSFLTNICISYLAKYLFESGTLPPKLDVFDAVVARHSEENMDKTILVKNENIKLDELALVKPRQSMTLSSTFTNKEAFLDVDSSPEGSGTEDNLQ
Calls only; i = inactive.

SMILES | CHT allo act
CC(Oc1ccc(F)cc1)C(=O)Nc1cc(S(=O)(=O)N2CCOCC2)ccc1N1CCCC1 (stereo unspecified) | i
CC(C)(C)N(Cc1ccccc1)C(=O)COC(=O)Cn1cnc2ccccc2c1=O | i
Cc1ccc(S(=O)(=O)N2CCN(c3ncnc4c3cnn4-c3ccccc3)CC2)cc1 | i
CN(Cc1ccccc1)C(=O)CCCn1c(=O)[nH]c2cc(Cl)ccc2c1=O | i
O=C(CCS(=O)(=O)c1ccccc1)N1CCOCC1 | i
Cc1cc(OCc2cc(C(=O)NCc3cc(C(C)C)no3)no2)cc(C)c1Cl | i
Cc1ccc(C)c(NS(=O)(=O)c2ccc(-c3ccc(=O)[nH]n3)o2)c1 | i
Nc1c(C(=O)NCc2ccccc2)nnn1Cc1cccc(Cl)c1 | i
COc1ccc(/C=C/C(=O)Nc2cc(C)nn2-c2nc3ccccc3n2Cc2cccc([N+](=O)[O-])c2)cc1 | i
Cc1ccc(OC(=O)c2sc(Cl)nc2C)cc1C | i
CCOc1ncccc1C(=O)Nc1ccc(F)cc1 | i
COc1cccc(OCCCOc2ccccc2C(C)C)c1 | i
Cc1ccccc1OCC(=O)N(Cc1cccs1)C1CCS(=O)(=O)C1 (stereo unspecified) | i
Cn1c(CNC(=O)c2ccc3c(c2)OCO3)nnc1SCC(=O)Nc1ccc(F)cc1 | i
CCN(CC)CC(=O)Nn1c(C)nc2c(ncn2-c2ccccc2)c1=O | i
Cc1cc(=O)[nH]c2c(C)c(Cl)ccc12 | i
COCCn1c(=NC(=O)/C=C/c2ccccc2Cl)sc2cc(NC(C)=O)ccc21 | i
O=C(Oc1oc(-c2ccco2)nc1C=Nc1ccc(Cl)cc1)c1ccco1 | i
O=C(c1ccc(Cl)cc1)[C@@H]1[C@@H]2C(=O)N(c3ccc(Cl)cc3)C(=O)[C@@H]2C2c3ccccc3C=NN21 (stereo partly specified) | i
CCN(CC)S(=O)(=O)c1cc(C(=O)OCC(=O)Nc2c(F)cccc2F)ccc1F | i
C/C(=C/C=N/Nc1nc(N2CCCCC2)nc(N2CCCCC2)n1)c1ccccc1 | i
CCN(CC)c1nc(Nc2ccccc2)nc(Oc2ccc(C(=O)OC)cc2)n1 | i
CCCSc1cc(N2CCN(C)CC2)nc(-c2ccc(OC)cc2)n1 | i
CCCCS(=O)(=O)N1CCCC(C(=O)Oc2ccc(Cl)cc2)C1 (stereo unspecified) | i
CC(C)N1C(=O)C2(OCCCO2)c2cc(Br)ccc21 | i
Cc1ccccc1Nc1nc(N)nc(CSc2nncn2C)n1 | i
CCOc1ccc(CCNC(=O)CCc2nnc3ccc(N4CCCC4)nn23)cc1OCC | i
Cc1ccc(OCC(=O)N2CCCC(CCC(=O)N(C)CCc3ccccn3)C2)cc1 (stereo unspecified) | i
O=C(CN(Cc1ccco1)C(=O)c1nsc(Cl)c1Cl)NC1CCCCC1 | i
COc1ccccc1N(Cc1ccccc1)S(=O)(=O)c1cccc(C(=O)Nc2cccc(C)n2)c1 | i

Filtered by structure, those above containing an NH in an aromatic ring
SMILES | CHT allo act
CN(Cc1ccccc1)C(=O)CCCn1c(=O)[nH]c2cc(Cl)ccc2c1=O | i
Cc1ccc(C)c(NS(=O)(=O)c2ccc(-c3ccc(=O)[nH]n3)o2)c1 | i
Cc1cc(=O)[nH]c2c(C)c(Cl)ccc12 | i

Three entries from above, set out differently.
> CCOc1ccc(CCNC(=O)CCc2nnc3ccc(N4CCCC4)nn23)cc1OCC
  CHT allo act = i
> O=C(c1ccc(Cl)cc1)[C@@H]1[C@@H]2C(=O)N(c3ccc(Cl)cc3)C(=O)[C@@H]2C2c3ccccc3C=NN21 (stereo partly specified)
  CHT allo act = i
> CCCSc1cc(N2CCN(C)CC2)nc(-c2ccc(OC)cc2)n1
  CHT allo act = i

The list continues.
SMILES | CHT allo act
COC(=O)c1ccc(C2C(C(=O)c3cc4ccccc4o3)=C(O)C(=O)N2CCN2CCOCC2)cc1 (stereo unspecified) | i
CCN(CC)CCN1C(=O)c2oc3ccccc3c(=O)c2C1c1ccc(F)cc1 (stereo unspecified) | i
O=C1/C(=C\c2ccco2)CCC/C1=C\c1ccco1 | i
COc1ccccc1N1CCN(CC(=O)N(CC(C)C)c2c(N)n(CC(C)C)c(=O)[nH]c2=O)CC1 | i
CCOC(=O)c1c[nH]n(-c2ccccc2)c1=O | i
Cc1ccc(C(=O)O)cc1NC(=O)CSc1ncnc2sc3c(c12)CCC3 | i
Cc1c(CN(C)C(=O)/C=C/c2ccc([N+](=O)[O-])cc2)cnn1C | i
O=C(Nc1ccc(NC(=O)c2ccccc2)nc1)c1ccncc1 | i
COc1ccc(C2c3c(oc4ccc(Cl)cc4c3=O)C(=O)N2CCN2CCOCC2)cc1 (stereo unspecified) | i
N#Cc1ccccc1OCC(=O)OCC(=O)c1ccc2c(c1)NC(=O)CO2 | i
Cc1[nH]c2ccccc2c1C(O)c1ccncc1 (stereo unspecified) | i
Cc1nc2scc(-c3ccc(Cl)cc3)c2c(=O)o1 | i
O=C(COC(=O)C1CCN(S(=O)(=O)c2ccc3c(c2)OCCO3)CC1)NC1CCCCC1 | i
O=C(Cn1c(NCCO)nc2ccccc21)c1ccc(Cl)cc1 | i
CCOC(=O)c1ccc(NC(=O)c2ccc(CO)c(C(=O)NC3CCN(C(=O)OCC)CC3)c2)cc1 | i
CC(/C=N/n1c(-c2ccc(C)cc2)n[nH]c1=S)=C\c1ccco1 | i
CN(C1CCCCC1)S(=O)(=O)Cc1ccccc1 | i
O=C(N1CCN(c2ccccc2)CC1)C12CC3CC(CC(C3)C1)C2 | i
COC(=O)c1nn(-c2ccccc2)c(=O)cc1O | i
O=C(O)CCC(=O)Nc1ccc(Br)cc1C(=O)c1ccc(Cl)cc1 | i
Cc1cc(C)cc(C(=O)NC2C(=O)N3C(C(=O)O)=C(CSc4nnc(C)s4)CSC23)c1 (stereo unspecified) | i
CCOc1cccc(-c2cc(C(=O)N3N=C(C)CC3(O)C(F)F)c3ccccc3n2)c1 (stereo unspecified) | i
CSc1cccc(-n2ccc(=O)c(C)c2C)c1 | i
CN(C)C(=O)CN1C(=O)NC2(CCCc3ccccc32)C1=O (stereo unspecified) | i
Cc1ccc([C@@H]2C3COCC=C3C(C#N)=C(N)C2(C#N)C#N)o1 (stereo partly specified) | i
Cc1nn(-c2ccccc2)c(Cl)c1/C=N/Nc1nncc(=O)[nH]1 | i
O=C(O)CCCC(=O)Nc1ccc(Cl)cc1 | i
O=C(Nc1ccccc1)O[C@@H]1C[C@H]2CCC(=O)N3CC[C@@H](C1)[C@@H]23 | i
c1ccc(-c2csc(N3CCc4ccccc4C3)n2)cc1 | i
COC(=O)c1cc2sccc2n1Cc1nc(-c2cccc(Cl)c2)oc1C | i
Cc1c(Cc2ccccc2)sc(/N=C/c2ccc3ccccc3c2)c1C(N)=O | i
OCCNc1nc2ccccc2[nH]1 | i
O=C(CCN1C(=O)/C(=C/c2ccccc2)SC1=S)Nc1cccnc1 | i
CCC1(CC)NC(=S)N(Nc2ccccc2)C1=O | i
COCCN(C(=O)CSc1nc2ccc(Cl)cc2[nH]1)c1c(N)n(Cc2ccccc2)c(=O)[nH]c1=O | i
CC1(C)Cc2c(sc3[nH]c(=O)n(CC(=O)NCC4CCCO4)c(=O)c23)CO1 (stereo unspecified) | i
Cc1ccc(C(=O)c2cc(C)sc2N)cc1 | i
CN(Cc1ccccc1)C(=O)CCCn1c(=O)c2cccn2c2cccnc21 | i
CC(C)C(=O)N(Cc1ccccc1)S(=O)(=O)c1ccc2c(c1)oc(=O)n2C | i
O=C(CSc1ccsc1[N+](=O)[O-])NCCc1ccc(Cl)cc1 | i
Cc1cccc(Sc2c([N+](=O)[O-])ncn2C)n1 | i
Cc1ccc(NC(=S)N=Nc2c(O)[nH]c3ccccc23)cc1 | i
COc1ccc(C)cc1N(C(=O)c1ccc(F)cc1)c1nc2ccccc2s1 | i
O=C(O)CC(CC(=O)Nc1ccccc1C(=O)O)c1ccccc1 (stereo unspecified) | i
Cc1ccc(C(=O)c2sc3nsc(C)c3c2N)cc1 | i
CCOC(=O)c1c(-c2ccccc2)csc1NC(=O)c1nn(CC)cc1Br | i
Cc1ccccc1OCc1nnc(SCC(=O)Nc2ccc(N3CCOCC3)c(Cl)c2)n1C | i
COc1ccc(C(=O)NNC(=O)CCn2nnc(-c3ccc(Cl)cc3)n2)cc1OC | i
O=C(CSc1nnc(-c2ccc(OC(F)F)cc2)o1)N1CCOCC1 | i
O=C(NCCCNCc1ccccc1)/C(=N\O)c1ccccc1 | i
O=C(CC1=NC2(CCCC2)Cc2ccccc21)N1CCOCC1 | i
CCCCNC(=O)Nc1nnc(-c2ccc(Cl)cc2)o1 | i
COc1ccc(CCNC(=O)/C=C/C(=O)O)cc1OC | i
COC(=O)C(Cc1cnc(Cl)s1)(C(=O)OC)c1ccc(C(F)(F)F)cc1[N+](=O)[O-] | i
CC(C)CCNC(=O)C1CCCN(S(=O)(=O)c2ccc3c(c2)CC(C)N3C(=O)C2CC2)C1 (stereo unspecified) | i
COc1ccc2c3n(nc2c1)CCN=C3c1ccc(Cl)cc1 | i
NC(=S)N/N=C/c1ccccc1OCCSc1ccc(Cl)cc1 | i
COc1ccc(NC(=O)Cc2nnc(SCC(=O)NC3CCCCC3C)n2C)cc1 (stereo unspecified) | i
COc1ccc(CN2CCOCC2)cc1 | i
Cc1ccccc1-n1ncc(C(C)NC(=O)c2ccccc2)c1C (stereo unspecified) | i
Next section
SMILES | CHT allo act
CCC(=O)Nc1cccc(C2=NOC3(C2)C[C@@H](C(N)=O)N(C(=O)c2cc([N+](=O)[O-])cc([N+](=O)[O-])c2C)C3)c1 (stereo partly specified) | i
Cc1nc2ccccc2c(=O)n1NC(=O)c1cccnc1Cl | i
O=C1C(Cl)=C(N2CCOCC2)C(=O)N1c1ccccc1Cl | i
O=C(Nc1cccc([N+](=O)[O-])c1)Nc1cccs1 | i
CC(C)(C)OC(=O)N1CCN(c2ccc([N+](=O)[O-])cc2)CC1 | i
COC(=O)C1=NN(C(=O)c2ccccc2)C(C)(O)C1 (stereo unspecified) | i
NC(=O)NC(=O)CSc1nnc(-c2ccco2)n1Cc1ccccc1 | i
COc1ccc(/C=C/C(=O)NCCN2CCOCC2)cc1OC | i
NC(=O)c1cc2ccccc2o/c1=N/NC(=O)c1cccc(F)c1 | i
OC(COCCOc1ccc(Br)cc1)CN1CCCCC1 (stereo unspecified) | i
C=CCS/C(=N\n1cnc2ccccc2c1=O)N1CCCCC1 | i
Cc1cc(C(=O)CSc2nnnn2C)c(C)n1C1CC1 | i
CC(=O)c1ccc(NC(=O)C2CCCN2S(=O)(=O)c2cccc3cccnc23)cc1 (stereo unspecified) | i
CCn1c(=O)cc(SCC(=O)NCCCN2CCC(C)CC2)c2ccccc21 | i
Cc1c(C(=O)N2CCC(C(N)=O)CC2)sc(N)c1C#N | i

The last 2 compounds of the part before come first, to join the parts:
SMILES | CHT allo act
CCn1c(=O)cc(SCC(=O)NCCCN2CCC(C)CC2)c2ccccc21 | i
Cc1c(C(=O)N2CCC(C(N)=O)CC2)sc(N)c1C#N | i
Cc1ccc(N2CC(C(=O)N3CCC(C(=O)Nc4nnc(C(C)C)s4)CC3)CC2=O)cc1 (stereo unspecified) | i
CC1CN(CCOc2ccc(Cl)cc2Cl)CC(C)O1 (stereo unspecified) | i
CCCOc1ccc(C2C(C(=O)OC)=CN(CCOC)C=C2C(=O)OC)cc1 | i
Nc1ccn(C2CC(O)C(CO)O2)c(=O)n1 (stereo unspecified) | i
Cc1c(C(=O)Nc2ccccc2)cn2c(nc3ccccc32)c1C#N | i
O=C(CNCC1CCCO1)Nc1ccccc1N1CCCCCC1 (stereo unspecified) | i
O=C(NC1CC1)c1c[nH]c2ccc(S(=O)(=O)Nc3cccc(C(F)(F)F)c3)cc2c1=O | i
COc1ccc(N(C(=O)/C=C/c2ccc(OC)c(OC)c2)C2=CC3CCC(C2)N3C)cc1 (stereo unspecified) | i
Cc1cccc(-c2nnc(NC(=O)c3cccs3)s2)c1 | i
Cc1ccccc1SCC(=O)NC1CCOC1=O (stereo unspecified) | i
Cc1cccc(C)c1NC(=O)CSc1nc(N2CCOCC2)nc(N2CCOCC2)n1 | i
CCO[C@H]1OC(C(=O)NC2CC2)=C[C@@H](C)[C@@H]1CCCO | i
CCCCS(=O)(=O)NC1=NCN(CCOC(=O)c2ccccc2)CN1 | i
CCc1ccc(OCC(=O)NC(=S)Nc2ccc(Br)c(C)n2)cc1 | i
COc1ccc(N2CCN(C(=O)c3cc4c(=O)n(Cc5ccccc5)ccc4nc3C)CC2)cc1 | i
O=C(c1cc(-c2ccc(Cl)s2)nc2ccccc12)N1CCOCC1 | i
Cc1ccc(NC(=S)N/N=C/c2ccc(OCCC(C)C)cc2)c(C)c1 | i
Cc1cc(NC(=O)c2cccc(S(=O)(=O)N3CC(c4ccccc4)CC3=O)c2)no1 (stereo unspecified) | i
O=C(NCC1CCCO1)C1CCCN1C(=O)NC1CCCCC1 (stereo unspecified) | i
CCOc1ccccc1C(=O)NCCCCCC(=O)O | i
Cc1cc(C(=O)O)ccc1-c1ccc(/C=C2\NC(=O)N(Cc3ccccc3Cl)C2=O)o1 | i
Cc1ccc([N+](=O)[O-])cc1N=Cc1ccc(Br)s1 | i
CC(C)CNS(=O)(=O)c1ccc(CC(C)C)cc1 | i
Cc1c(Cl)c(=O)n2c(=O)c(Cl)c(C)n12 | i
COc1cccc(C2C(C(=O)c3sc(C)nc3C)=C(O)C(=O)N2CCN2CCOCC2)c1 (stereo unspecified) | i
Cc1ccc(/C=N/c2sc(Cc3ccccc3)c(C)c2C(N)=O)o1 | i

Compound activity: PubChem BioAssay, Johns Hopkins Ion Channel Center

These rows are one share of the data; most or all hits stand in other tables.
